Source: PubChem BioAssay (several laboratories)
Arbovirus anti = antivirals against arbovirus infection; arbovirus infection cell-based antiviral screen; 200,000 tested, 0.37% active; AID 1251; inhibition, % at 10 µM;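 active = inhibition from about 30%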;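 note: bluetongue infection of BSR cells; cell survival read as ATP light after 72 h; 0% = infected wells without compound and 100% = uninfected wells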
YopH inh = blocks Yersinia enterocolitica YopH tyrosine phosphatase; 140,000 tested, 0.16% active; AID 898; fluorescence Ex485/Em525; inhibition, %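 (about 10 µM by stock and volumes)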;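 active = inhibition of 50% or more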;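 note: controls were vehicle for no effect and minimum signal wells for full effect; inactives centre near -20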
Mtb betalactam = beta-lactam sensitization of Mtb H37Rv. 330,000 tested, 0.27% active. inhibition, % at 25 µM. M. tuberculosis H37Rv growth with meropenem, percent inhibition; hits of this screen are not shown here;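 active = about 74% or more and at least 40 points above the plate without the antibiotic, then above 30% in a dose series; inconclusive = first-round hits that could not be retested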;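 note: growth measured after seven days incubation then overnight dye step; 0% = bacteria only wells and 100% = bacteria with antibiotic; twin plates without the antibiotic show which effects depend on it; some results filed as inactive read as strong as hits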
Mtb growth = M. tuberculosis H37Rv growth inhibitors, H37Rv strain (AID 1626). M. tuberculosis H37Rv growth inhibition; higher % means a stronger effect. one-dose inhibition, % at 10 µM; IC50 in µM for titrated hits. 220,000 tested, 0.95% active;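 active = confirmed in a dose series; inconclusive = inhibition above 80% but not taken into the dose series; inactive = below 80% or under 30% at every dose of the series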;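 note: bacteria incubated seven days before Alamar blue readout; 0% = bacteria only wells and 100% = bacteria with antibiotic wells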
RecA intein inh = Mtb RecA intein splicing inhibition; inhibition, %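 (about 9 µM by stock and volumes)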; 290,000 tested, 0.75% active; cell-free RecA intein splicing, fluorescence; P9WHJ3; AID 2221; in the data active = inhibition above about 30%; inconclusive = no clear call, values can overlap the other calls;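 note: 0% = vehicle wells and 100% = reference inhibitor control wells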
Target sequence (P9WHJ3 whole entry, looked up): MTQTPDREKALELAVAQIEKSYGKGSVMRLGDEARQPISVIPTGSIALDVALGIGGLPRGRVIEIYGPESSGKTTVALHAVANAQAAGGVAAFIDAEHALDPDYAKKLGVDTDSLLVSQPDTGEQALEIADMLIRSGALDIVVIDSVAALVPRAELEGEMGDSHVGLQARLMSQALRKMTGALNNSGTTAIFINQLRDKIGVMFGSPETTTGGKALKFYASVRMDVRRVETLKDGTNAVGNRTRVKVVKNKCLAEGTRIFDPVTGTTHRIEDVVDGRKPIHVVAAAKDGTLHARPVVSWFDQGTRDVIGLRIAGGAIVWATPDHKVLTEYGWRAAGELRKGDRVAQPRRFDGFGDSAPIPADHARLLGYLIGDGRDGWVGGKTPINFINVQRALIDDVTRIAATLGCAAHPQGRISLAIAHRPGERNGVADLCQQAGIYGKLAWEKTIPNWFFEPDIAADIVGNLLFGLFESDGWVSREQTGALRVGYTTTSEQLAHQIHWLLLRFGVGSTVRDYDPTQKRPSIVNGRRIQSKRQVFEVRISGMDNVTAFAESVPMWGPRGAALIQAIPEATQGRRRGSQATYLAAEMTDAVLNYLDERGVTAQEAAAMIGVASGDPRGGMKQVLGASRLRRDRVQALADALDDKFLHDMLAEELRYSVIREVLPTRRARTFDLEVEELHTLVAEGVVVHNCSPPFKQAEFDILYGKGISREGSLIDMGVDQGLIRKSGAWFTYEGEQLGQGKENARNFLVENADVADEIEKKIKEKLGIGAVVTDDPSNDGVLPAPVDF
Arbovirus anti repeat = further read-out of Arbovirus anti, marked with its call; inhibition, %; measured here: 10K subset replicate screen; many hits read low in the repeat;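 first of two repeat runs on a subset; 0% = infected and 100% = uninfected wells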
* hit, by the source's call; ? = inconclusive; · = no result given.

SMILES	Arbovirus anti	YopH inh	Mtb betalactam	Mtb growth	RecA intein inh	others
O=C(Nc1ccc(N2CCCC2)cc1)c1ccccc1[N+](=O)[O-]	·	·	0	·	-2.9
CCCNC(=O)c1ccc2c(=O)c(O)c(-c3ccc(F)cc3)[nH]c2c1	·	·	1	-9%	-231
CCCCCCn1ccc(=N)cc1	-4	-21	3	-6%	3.0
Fc1ccc(NC(=S)N2CCc3ccccc32)cc1	·	·	-3	·	-1.1
Cc1ccc(S(=O)(=O)N2CCN(Cc3cc(C(C)(C)C)ccc3O)CC2)cc1	·	·	61	·	-1.7
COc1ccc(C(=O)Nc2nc(CC(=O)NCCc3cccc(OC)c3)cs2)cc1	·	·	0	·	0.1
O=C(COc1ccccc1Cl)Nc1nnc(S(=O)(=O)N2CCCC2)s1	·	·	4	·	-1.4
CCOC(=O)c1sc(C)c(C(=O)NCC(C)(C)CN(C)C)c1N	-2	-2	0	1%	1.4
CCN1C(=O)c2ccccc2Sc2ccc(C(=O)NCCCN3CCCCC3)cc21	·	·	3	·	10
COc1cccc(NS(=O)(=O)c2cn(C)c(=O)n(C)c2=O)c1	8	-52	-5	5%	-0.3	Arbovirus anti repeat=-1
CCC(=Nc1ccc2c(c1)CCC2)c1c(O)n(-c2ccc(OC)cc2)c(=O)[nH]c1=O	·	·	87	?	-2.0
C/C(=N/NC(=O)CNC(=O)CCc1ccccc1)c1ccc(Cl)cc1	·	·	-2	-3%	-1.7
CCOC(=O)CP(=O)(c1ccccc1)c1ccccc1	1	-27	-17	-8%	-1.3
N#CCCCCN1CCCC1	·	·	0	-10%	1.0
FC(F)(F)c1cc(Nc2ccccc2)nc(-c2ccccn2)n1	·	·	-5	·	1.4
Fc1cc(Br)ccc1NC(=S)NCCc1ccccc1	-37	-38	7	13%	6.8
CC(=O)Nc1cc(NC(C)=O)cc(C(=O)OCC(=O)Nc2ccc(S(=O)(=O)NC3=NCCCCC3)cc2)c1	·	·	-3	·	-0.3
O=C(O)c1c2c(nc3ccc(S(=O)(=O)N4CCC(C(=O)NC5CCCCCC5)CC4)cc13)CCCC2	-2	·	-4	-2%	2.8
COc1ccc(/C=N/NC(=O)c2c(-c3ccccc3)noc2C)cc1[N+](=O)[O-]	·	·	-5	·	0.3
O=P(O)(O)c1ccccc1OCCOCCOCCOCCOc1ccccc1P(=O)(O)O	1	·	1	-5%	·
CCOc1ccc(S(=O)(=O)N2CCN(C(=O)c3ccco3)CC2)cc1	·	·	4	·	1.1
O=C(/C=C/c1ccc(Cl)c(Cl)c1)N1CCOCC1	·	·	3	·	-2.3
Cc1nc(NC(C)c2ccccc2)c2c3c(sc2n1)CCC3 (stereo not given)	-6	0	9	-1%	-0.9
Cc1ccc(OCCCn2c(CO)nc3ccccc32)cc1	11	-91	17	7%	1.4
COc1cc(C(CCN2CCN(c3ccccc3)CC2)c2c(OC)cc(OC)c3c(C)cc(=O)oc23)cc(OC)c1OC (stereo not given)	·	·	91	14%	9.7

Reprinted from above, three compounds:
SMILES	Arbovirus anti	YopH inh	Mtb betalactam	Mtb growth	RecA intein inh	others
O=C(/C=C/c1ccc(Cl)c(Cl)c1)N1CCOCC1	·	·	3	·	-2.3
Cc1nc(NC(C)c2ccccc2)c2c3c(sc2n1)CCC3 (stereo not given)	-6	0	9	-1%	-0.9
Cc1ccc(OCCCn2c(CO)nc3ccccc32)cc1	11	-91	17	7%	1.4

Continuation.
SMILES	Arbovirus anti	YopH inh	Mtb betalactam	Mtb growth	RecA intein inh	others
Cc1ccccc1C(=O)NC(=S)Nc1cccc(NC(=O)C(C)C)c1	-5	·	2	4%	0.2
CC(C)(C)NC(=O)COc1ccc(S(=O)(=O)N2CCCC2)cc1	·	·	4	·	-1.7
CN(Cc1cnn(C)c1)Cc1nc(-c2ccc(Cl)cc2)no1	1	·	-1	6%	2.0
CCOc1ccc(NS(=O)(=O)c2ccc(-c3ccc(=O)[nH]n3)o2)cc1	·	·	7	·	-0.9
Cc1ccc(C(C)C)cc1OCC(=O)Nc1ccccc1N1CCCC1	·	·	-7	·	3.0
COc1ccc(S(=O)(=O)N2CN3CCN(C3)C2)cc1	·	·	-1	·	-1.7
COC(=O)c1cc2c(ccn2-c2ccc(F)cc2)n1Cc1ccc(C#N)cc1	-2	-40	-5	4%	2.3
Cc1cc(C)c2nc(NNC(=O)c3cc(-c4cccs4)nc4ccccc34)sc2c1	-31	-4	5	·	-0.1
COc1cc(C2NC(=O)NC(C)=C2[N+](=O)[O-])cc(OC)c1OC (stereo not given)	·	·	0	-7%	-3.3
CCOc1ccccc1NC(=S)NCC1CCCO1 (stereo not given)	12	4	-2	0%	-2.6
O=C(CSc1nnc(CNC(=O)c2ccco2)o1)Nc1ccc(Cl)cc1	·	·	1	·	0.3
O=C1CC(C2CCCO2)C(=O)N1c1ccc(Cl)c(Cl)c1 (stereo not given)	5	·	-4	-32%	-1.4
O=S(=O)(Cc1ccc(Cl)cc1)NCc1cccnc1	·	·	1	11%	·
O=C(NCC1CCCO1)c1cc2c(=O)[nH]c3ccccc3c2s1 (stereo not given)	-5	·	2	-8%	-4.0
CC1CCCCC1NC(=S)NC(=O)c1cccs1 (stereo not given)	·	·	-1	-1%	12
N#CC1CC(c2ccc([N+](=O)[O-])cc2)=NN1c1ccc([N+](=O)[O-])cc1 (stereo not given)	5	·	-2	5%	-3.3
O=C(NCc1ccc2c(c1)OCO2)C(=O)NCC1OCCN1S(=O)(=O)c1ccc(Br)cc1 (stereo not given)	·	·	-12	·	-1.6
CC(C)c1cc(C(=O)NC2CCCc3c2cnn3-c2ccccc2F)no1 (stereo not given)	·	·	4	·	3.7
CCCCn1c(N)c(N(CCOC)C(=O)c2oc3ccc(OC)cc3c2C)c(=O)[nH]c1=O	·	·	-15	·	3.7
O=CN1N=C(c2ccccc2)CC1c1ccccc1[N+](=O)[O-] (stereo not given)	-7	0	8	-16%	4.1
COc1cccc(S(=O)(=O)Nc2ccc(C(=O)N3CCCCCC3)cc2)c1	3	·	-2	0%	-0.7
O=C(NCCN1CCCCC1)/C(=C/c1ccco1)NC(=O)c1ccccc1	·	·	4	·	-1.1
CCCCN(C)CCNC(=O)c1cc2c(=O)[nH]c3ccccc3c2n1C	·	·	2	·	-0.7
O=C(C1CC=CCC1)N1CCC(CO)(Cc2ccc(Cl)cc2)CC1 (stereo not given)	4	·	2	15%	-6.7
CCC(Sc1nc2ccc(C)cc2[nH]1)C(=O)O (stereo not given)	1	-33	-2	6%	-0.5
Next part.
SMILES	Arbovirus anti	YopH inh	Mtb betalactam	Mtb growth	RecA intein inh	others
O=S(=O)(NCCc1ccc2c(c1)OCCO2)c1cccs1	3	-37	7	8%	1.9
Cc1cc(/C=C2\SC(=S)NC2=O)c(C)n1C1CC1	-1	-20	-1	·	0.8
CC1CCN(C(=O)Cn2c(=O)n(Cc3ccc4c(c3)OCO4)c(=O)c3ccccc32)CC1	-8	-42	-3	12%	-16
C=CCOc1ccnc(-c2ccccc2)n1	·	·	0	-7%	0.9
CCOC(=O)c1sc(NC(=O)Nc2ccc(F)cc2)nc1C	4	-7	-3	1%	-1.0
CCNc1c(NC(=O)C2CCC(C)CC2)c(=O)oc2ccccc12 (stereo not given)	·	·	-2	·	0.2
CC1CCN(CC(C)OC(=O)c2ccc3c(c2)OCCO3)CC1 (stereo not given)	0	·	-3	12%	0.6	Arbovirus anti repeat=1
Clc1ccc(Cn2ncc3c(N4CCCC4)ncnc32)cc1	-7	-4	-1	18%	2.3
O=C(NCCN1CCOCC1)c1cccc(S(=O)(=O)N2CCCCCC2)c1	8	-10	6	-3%	0.4
O=C(Cc1ccc(F)cc1)Nc1nnc(-c2ccc(F)cc2)o1	·	·	93	·	0.3
OC(C[n+]1ccccc1)c1ccccc1 (stereo not given)	·	·	-9	·	-0.7
COC(=O)c1ccccc1NC(=O)C1CCN(C(=O)Cc2ccccc2)CC1	·	·	2	·	0.7
O=C1CCCN1CCC1CCCCN1Cc1nc(-c2cnccn2)no1 (stereo not given)	0	·	4	-6%	3.1
CC(=O)Nc1ccc(S(=O)(=O)NC(C)C(=O)OCC(=O)NC2CCCC2)cc1 (stereo not given)	3	-17	6	-1%	1.9
C/C(=N/NC(=O)CN1CCN(S(=O)(=O)c2ccc(Br)cc2)CC1)c1ccco1	-7	-17	-4	·	1.6
Cc1ccsc1C(=O)Nc1ccccc1N1CCOCC1	-1	-4	15	4%	0.6
Cc1nc2ccccc2n1CC(=O)OCC(=O)Nc1ccc2c(c1)OCCO2	1	-27	-9	1%	0.5
COc1nc(N)c(S(=O)(=O)c2ccccc2C)cc1C#N	0	-42	0	-2%	·
O=S(=O)(NCCCN1CCOCC1)c1ccc(Cl)s1	·	·	-10	-1%	-1.0
Cc1cccc2cc(CN(CC(C)C)S(=O)(=O)c3ccccc3)c(=O)[nH]c12	·	·	-7	·	0.3
CCOC(=O)N1CCN(C(=O)C(=O)N/N=C/c2ccc(OC)cc2OC)CC1	·	·	-3	-2%	-1.2
O=c1c([N+](=O)[O-])cccn1Cc1ccc(F)cc1Cl	8	·	10	2%	-10
COc1ccc(-c2cn3c(C)c(C(=O)NC(C)(C)C)sc3n2)cc1	-13	·	79	·	4.9	Arbovirus anti repeat=0
CCOCCCNC(=O)C1CCCN1C(=O)NC1CCCCC1 (stereo not given)	6	-6	6	-21%	6.0
O=C(c1cc(S(=O)(=O)N2CCC3(CC2)OCCO3)ccc1F)N1CCC2(CC1)OCCO2	-1	·	0	-9%	-3.3

Some of these compounds in order of formula weight, ascending:
SMILES	Arbovirus anti	YopH inh	Mtb betalactam	Mtb growth	RecA intein inh	others
C=CCOc1ccnc(-c2ccccc2)n1	·	·	0	-7%	0.9
CC1CCN(CC(C)OC(=O)c2ccc3c(c2)OCCO3)CC1 (stereo not given)	0	·	-3	12%	0.6	Arbovirus anti repeat=1
CCOCCCNC(=O)C1CCCN1C(=O)NC1CCCCC1 (stereo not given)	6	-6	6	-21%	6.0
O=C1CCCN1CCC1CCCCN1Cc1nc(-c2cnccn2)no1 (stereo not given)	0	·	4	-6%	3.1

(list continues)
SMILES	Arbovirus anti	YopH inh	Mtb betalactam	Mtb growth	RecA intein inh	others
O=C(Cn1cc(C(=O)c2cccs2)c2ccccc21)NCc1cccs1	-16	-17	-4	-14%	2.6
Cc1ccc(NC(=O)CCC(=O)NNC(=O)COc2ccc([N+](=O)[O-])cc2)c(C)c1	·	·	5	·	0.3
CC(C)(C)C(=O)CNS(=O)(=O)c1ccc(S(=O)(=O)NC2CCCC2)cc1	8	-10	-4	19%	-2.2
CN(CC(=O)Nc1ccccc1C(F)(F)F)C(=O)COc1cccnc1[N+](=O)[O-]	13	·	-3	-7%	-0.8
Cc1ccc(S(=O)(=O)NCCCn2ccnc2)cc1C(=O)NC(C)C	·	·	5	·	-2.1
CC(C)(C)c1ccccc1NC(=O)CN1C(=O)NC(Cc2ccccc2)C1=O (stereo not given)	·	·	-8	·	5.5
COc1cccc(C2CC(c3ccccc3)n3ncnc3N2)c1 (stereo not given)	5	-9	-4	-4%	0.0
Nc1nc(Br)c2ccccc2c1-c1ccc(F)cc1	9	-26	-10	6%	0.0
CCOC(=O)c1ccc(NC(=O)Nc2c(C)n(C)n(-c3ccccc3)c2=O)cc1	·	·	-17	·	-0.3
O=C(CCC1CCCC1)Nc1cccc(Cc2ccncc2)c1	-8	·	16	76%	4.0
N#Cc1ccc(COC(=O)c2cnc(Cl)c(Cl)c2)cc1	·	·	76	·	1.4
Cc1nc2nc(Cc3ccccc3)nn2c(C)c1Cl	-12	3	6	-5%	-1.6
N#CCCn1cnc2c(=S)nc[nH]c21	-2	-1	-1	7%	-0.8
O=S(=O)(c1ccc(Cl)cc1)N1CCCN(c2ccc(C(F)(F)F)cn2)CC1	·	·	-4	19%	2.0
Cc1cc(C)cc(C(=O)NC(CC(N)=O)c2ccc(N3CCC(Cc4ccccc4)CC3)c([N+](=O)[O-])c2)c1 (stereo not given)	·	·	-6	·	-1.5
CC(C)Oc1ccc(CCc2n[nH]c(=S)n2Cc2ccccc2)cc1	-6	-19	12	14%	1.3
Cc1cccn2c(CNCCSc3nccn3C)c(C(=O)N3CCCCC3)nc12	·	·	-1	6%	1.3
N#Cc1c(-c2cccnc2)cc(-c2ccccc2)nc1N	·	·	3	-1%	-2.3
COc1ccc(C(=O)Nc2ccc3c(c2)nc(CCNC(=O)c2ccco2)n3C)cc1	·	·	1	·	-1.5
O=C(Nc1ccccc1)N1CCN(c2ncccn2)CC1	0	-178	-11	3%	-0.2
Cc1ccc(N(C)C(=O)CC(C)S(=O)(=O)c2ccc3c(c2)NC(=O)CO3)cc1 (stereo not given)	·	·	-6	·	0.4
NC(=O)C1=C[C@H](c2ccc(C(F)(F)F)cc2)C[C@H](OCCCCO)O1	7	·	0	-9%	5.1
Cc1c(NC2(c3nnnn3-c3ccc(Br)cc3)CCCCC2)c(=O)n(-c2ccccc2)n1C	-3	-25	-3	-5%	-0.6

An excerpt. The share of hits here may be higher or lower than overall.
